D2 potentiator = human D2 receptor positive allosteric modulation; P14416; DiscoveRx D2 beta-arrestin cells, luminescence, 90 min; 100% = 57 uM dopamine signal; potentiation, % (test concentration not listed); 0.23% of 360,000 active; AID 624464; active = potentiation of 50% or more; inconclusive = 30% to 50%; inactive = 30% or less;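 further: compound concentration not given in the record; tested on top of an EC20 dose of dopamine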
Target sequence (P14416 whole entry, looked up): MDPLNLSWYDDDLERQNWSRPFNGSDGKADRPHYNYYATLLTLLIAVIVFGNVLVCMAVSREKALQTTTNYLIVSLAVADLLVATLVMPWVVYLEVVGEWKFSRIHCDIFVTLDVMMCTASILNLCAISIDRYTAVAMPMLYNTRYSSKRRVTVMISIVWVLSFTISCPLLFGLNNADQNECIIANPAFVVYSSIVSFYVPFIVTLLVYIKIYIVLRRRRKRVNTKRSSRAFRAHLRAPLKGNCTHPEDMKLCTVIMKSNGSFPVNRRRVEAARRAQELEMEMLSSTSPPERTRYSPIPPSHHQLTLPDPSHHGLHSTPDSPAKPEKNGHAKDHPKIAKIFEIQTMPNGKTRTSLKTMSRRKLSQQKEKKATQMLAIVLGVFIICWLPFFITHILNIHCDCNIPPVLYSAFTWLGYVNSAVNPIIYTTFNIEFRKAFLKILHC
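PathHunter D2 cells, attached overnight at 37 deg C, received compound in DMSO plus dopamine at EC20 (50 nM final) for 90 min at 37 deg C. Beta-arrestin recruitment was read as luminescence after 1 h with detection reagent at ambient temperature.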
Six1-Eya2 blk = Six1/Eya2 interaction inhibition; AlphaScreen GST-Six1/His-Eya2 binding, biochemical; hits give low values; control for the full effect not named in the record; activity change, % (no concentration beside the values); 0.56% of 360,000 active; AID 651725; in the data active = activity change below about -65%; inconclusive = about -30% to -65%; inactive = above about -30%; further: on the % scale 0 is the no-effect control and ±100 the full control effect; compound concentration not given in the record
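GST-Six1 + His-Eya2 (5X stock: 250/500 nM); Tris pH 8.0, 300 mM NaCl, 0.05% BSA, 0.02% Tween 20; GSH donor/Ni acceptor beads; 1 h 37 °C dark; AlphaScreen readout.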
Sfp inh = blocks B. subtilis Sfp PPTase activity; Biochemical Sfp PPTase activity, qHTS; 3.5% of 310,000 active; Potency, µM, without a hit: max response, negative = inhibition, usual class: inhibitors; active means well fitted inhibition curve with a large enough effect; inconclusive means small, poorly fitted or top-dose-only effect, or another doubt; inactive means no such curve, though single readings can be large or run the other way;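 further: the enzyme is Sfp with the accession as filed and its product quenches rhodamine fluorescence; potency means the concentration at half of the fitted maximal effect; 0% = enzyme reaction without inhibitor and -100% = no enzyme wells; top concentration of the series not given in the record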
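Buffer: 50 mM Hepes-Na pH 7.6, 10 mM MgCl2, 0.01% Nonidet P-40, 0.01% BSA. Enzyme 15 nM, pre-exposed to compound 15 min; substrates then added and fluorescence change tracked over 30 min.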
D2 ag = agonists of human D2 dopamine receptor (beta-arrestin); DiscoveRx PathHunter D2 beta-arrestin, luminescence, 90 min; 100% = 57 uM dopamine signal; activation, % (no concentration beside the values); 0.084% of 360,000 active; AID 624465; in the data active = activation above about 40%; inconclusive = about 15% to 40%; inactive = below about 15%; further: compound concentration not given in the record; the text of the record calls up to 30% inactive
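DiscoveRx PathHunter D2 beta-arrestin cells (2,100/well) attached overnight, then compound-stimulated 90 min at 37 C in HBSS/10 mM HEPES/0.1% Tween-20 buffer; beta-galactosidase complementation read by luminescence after 1 h at ambient temperature. Dopamine 57 uM final (EC100) as control.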
CtBP-E1A blk = CtBP/E1A binding inhibition; activity change, % (concentration not given with the values); AID 651724; AlphaScreen GST-E1A/His-CtBP binding, 1536-well; hits give low values; control for the full effect not named in the record; 0.49% of 340,000 active; in the data active means activity change below about -65%; inconclusive means about -30% to -65%; inactive means above about -30%; further: on the % scale 0 is the no-effect control and ±100 the full control effect
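Steps: dispense buffer (Tris pH 8.0, NaCl 300 mM, TCEP 1 mM, BSA, Tween 20); add 5X protein mix (GST-E1A, His-CtBP, 125 nM each); pin 23 nL compound; 2 h at 37 °C, dark; add 5X beads (50 ug/mL); 1 h; read.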
PINK1 modulator = PINK1 expression modulation; PINK1 immunofluorescence, high-content cytometry, 24 h; 0.2% of 410,000 active; Potency, µM (series often up to 76.6 µM), for inactives: at the top dose activation (PINK1 increase), hits mostly activators; AID 624263; active = well fitted activation curve with a large enough effect; inconclusive = small, poorly fitted or top-dose-only effect; inactive = flat fitted curve, though single readings scatter; cell line not stated here;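 further: potency means the concentration at half of the fitted maximal effect; % of control where 0% means no effect; nearly all actives have a fitted effect of over 65% in size; a mitochondrial uncoupler was the plate control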
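Stable cell line treated 24 h with compounds at 5 concentrations (CCCP controls), then fixed and immunostained for PINK1 plus nuclear and cell stains; PINK1 immunofluorescence quantified by laser-scanning microplate cytometry.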
TRPV1 potentiator = human TRPV1 potentiation. TRPV1-expressing cells, Fluo-8 calcium influx, capsaicin EC20 potentiation; host cell line not named in the record; control for the full effect not named in the record. potentiation, % at 8.33 µM. 0.02% of 320,000 active. AID 540277; active means potentiation above 80%; inconclusive means 30% to 80%; inactive means below 30%; further: 0% is about no effect
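TRPV1-expressing cells were cultured overnight at 35.5C and loaded with Fluo-8 calcium dye for 40 to 90 min at room temperature. After a 10 s baseline, compound was added and calcium influx was read kinetically for 3 min (ex 480/em 520 nm).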
Starred values were filed as active, the others as inactive; ? = inconclusive; · = no result given; & = joins results of further samples; [ ] = another dose, or the depositor's remark.

SMILES	D2 potentiator	Six1-Eya2 blk	Sfp inh	D2 ag	CtBP-E1A blk	PINK1 modulator	TRPV1 potentiator
O=C(COC(=O)c1ccc(S(=O)(=O)NCc2ccco2)cc1)Nc1ccc(Cl)cn1	-8.6	-4.8	-1.5%	-0.2	5.6	2.5%	-0.7
CCOC(=O)Cc1csc(NC(=O)c2cnc3scc(C)n3c2=O)n1	-4.8	-7.2	·	-5.1	-21.3	3.8%	·
Cc1ccc(-c2[nH]c3ccccc3c2SCCN)cc1	-22.6	-15.7	?	-3.1	-1.7	2.4%	-8.5
CCCCn1c(SCC(=O)N2c3ccccc3Sc3ccccc32)nc2c1c(=O)n(C)c(=O)n2C	-13.0	-3.9	-3.8%	0.1	7.0	-1.6%	12.0
O=S(=O)([N-]c1nc2ccccc2nc1-n1cc[n+](Cc2ccccc2)c1)c1ccc(Cl)cc1	-1.6	-0.5	13.3%	1.3	-0.5	11.7%	6.0
C=CCn1c(C)cc(C(=O)CSc2nnc(-c3cccc(S(=O)(=O)N(CC)CC)c3)o2)c1C	-11.8	-9.3	5.4%	-2.5	-13.1	1.8%	0.6
COc1cc([C@@H]2CC=C(C(=O)O)[C@H](c3ccc(Cl)cc3)N2S(=O)(=O)c2ccc(C)cc2)cc(OC)c1OC	-12.9	-0.1	·	2.1	-19.0	-1.7%	8.9
O=C1C2C(C(=O)N1CCc1ccccc1)C1C=CC2C12CC2 (stereo not drawn)	-9.7	4.1	12.1%	1.2	10.4	·	18.3
C(=N\Nc1nc(-c2ccccc2)cs1)/c1ccncc1	-5.1	3.9	?	4.0	-5.8	12.3%	-9.4
Cc1[nH]c(=O)[nH]c(=O)c1S(=O)(=O)N1CCCC(C(=O)NCCc2ccccc2)C1 (stereo not drawn)	1.8	12.9	24.1%	-1.9	-1.2	-0.4%	2.2
C[C@@H](C(=O)Nc1ccc2ccccc2c1)[C@H]1C[C@]1(C)[C@H](NS(=O)(=O)c1ccccc1)c1ccccc1	-11.5	-7.1	18.4%&21.8%	2.0	·	1.7%	14.0
Cc1ccc(NC(=O)COC(=O)CCC(=O)c2cccs2)cc1S(=O)(=O)N1CCOCC1	-1.3	-2.8	-3.8%	-0.1	-6.4	1.9%[38.3 µM]	-22.7
CCOc1ccc(C(=O)NCC(=O)OCc2nnc(-c3ccccc3)o2)cc1OCC	0.4	-1.4	·	1.6	3.8	2.2%	-0.3
CCCCn1c(NCc2cc(C)ccc2O)nc2ccccc21	-31.2	-26.3	·	1.1	-9.7	15.8µM*	·
O=C(CC(C(=O)O)P(=O)(c1ccccc1)c1ccccc1)c1ccc(Br)cc1 (stereo not drawn)	-2.4	-7.3	-12.6%	-2.6	-7.5	-0.5%	-4.1
CCOC(=O)c1c(C)n(C)c2ccc(OC)c(NC(=O)CN3CCN(C4CCCCC4)CC3)c12	-36.3	3.9	-2.1%	-3.6	-0.7	-1.9%	-3.1
Cc1ccc(NC(=O)CCNC(=O)c2ccccc2Cl)cc1S(=O)(=O)N1CCCCCC1	-7.0	2.4	·	-2.0	·	7.7%	6.7
O=C(NCc1ccccc1)[C@@H]1CCCN1C(=O)[C@@H]1CCCN1C(=O)c1cccs1	·	8.5	·	·	3.2	-0.6%	·
CCOC(=O)C(Cc1cc(N)c(Oc2ccc(OC)cc2)c(N)c1)NC(C)=O (stereo not drawn)	-4.5	4.8	·	-3.7	9.9	-0.1%	·
COc1ccc(-c2[nH]c(-c3cccc(OC)c3)nc2SCC(=O)NCc2ccco2)cc1	-6.4	-20.2	-8.1%	0.3	-6.8	3.2%	-12.0

Compounds from the list above with a COOH group:
SMILES	D2 potentiator	Six1-Eya2 blk	Sfp inh	D2 ag	CtBP-E1A blk	PINK1 modulator	TRPV1 potentiator
COc1cc([C@@H]2CC=C(C(=O)O)[C@H](c3ccc(Cl)cc3)N2S(=O)(=O)c2ccc(C)cc2)cc(OC)c1OC	-12.9	-0.1	·	2.1	-19.0	-1.7%	8.9
O=C(CC(C(=O)O)P(=O)(c1ccccc1)c1ccccc1)c1ccc(Br)cc1 (stereo not drawn)	-2.4	-7.3	-12.6%	-2.6	-7.5	-0.5%	-4.1

Additional entries follow.
SMILES	D2 potentiator	Six1-Eya2 blk	Sfp inh	D2 ag	CtBP-E1A blk	PINK1 modulator	TRPV1 potentiator
Cc1ccc(C(=O)N/C(=C/c2ccco2)C(=O)NCC2CCCO2)cc1 (stereo not drawn)	23.4	1.8	7.7%	0.0	3.1	?	12.6
CC(C)(C)NC(=O)CN(C(=O)CCC(=O)Nc1nccs1)c1cccc(C(F)(F)F)c1	-1.3	-0.7	14.2%	-2.0	·	-0.3%	-4.6
O=C(Nc1ccc(F)c(Cl)c1)C1CCCN(c2cnccn2)C1 (stereo not drawn)	-30.4	-5.1	9.2%	0.7	0.8	-1.3%&0.7%	-2.2
COC(=O)c1ccc(CNC(=O)COC(=O)c2cc(Cl)ccc2O)cc1	-3.7	-6.0	·	-0.8	·	4.1%	·
CC(CNC(=O)Cn1ccc2cc(S(=O)(=O)N3CCCC3)ccc21)c1ccccc1 (stereo not drawn)	-14.3	-2.2	8.7%	-0.3	-1.5	2.6%	-0.4
COc1cc(C2CC(=O)c3c(ccc4ccccc34)N2)ccc1O (stereo not drawn)	-8.1	-12.3	13.3%	-0.4	-10.3	2.1%	-0.4
COc1ccc(/C=C2/C(=N)N3N=C(CC(=O)N4CCCC4)SC3=NC2=O)cc1OC	-5.4	-1.8	10.9%	-0.8	-5.1	-1.0%	11.9
Cc1ccc(S(=O)(=O)N(C)C)cc1NC(=O)Cn1c(CN2CCOCC2)nc2ccccc2c1=O	-8.3	4.1	17.4%	1.7	8.8	0.3%	28.8
Cc1ccccc1N1C(=O)C2C3CCC(O3)C2C1=O (stereo not drawn)	-6.7	6.6	12.6%	4.7	-22.3	0.9%	6.9
Cc1nc(Cl)cc(N/N=C/c2ccc(O)cc2O)n1	2.3	-66.7*	7.0%	2.9	-80.7*	-0.8%	15.6
CC(=O)c1ccc(OCCCC(=O)OCC(=O)N2CCN(c3ccccc3)CC2)cc1	-5.6	7.5	-20.9%	-1.0	-1.9	0.5%	15.8
O=C(NCc1ccccn1)c1cc(-c2ccc(Cl)cc2)nc2ccccc12	-10.2	-11.8	-0.9%	-1.5	-5.0	3.9%	-5.8
O=c1cc(N2CCc3ccccc3C2)[nH]c(=O)n1Cc1ccc(F)cc1	-4.2	0.2	4.2%	2.0	-1.6	0.5%[38.3 µM]	5.9
O=C(Nc1ccccc1O)C(c1ccccc1)c1ccccc1	1.7	4.8	17.2%	1.0	2.9	6.4%	14.3
O=S(=O)(c1ccc(Cl)cc1)N1CCCC(c2nc(-c3ccc(F)cc3)no2)C1 (stereo not drawn)	-1.1	6.2	·	0.4	5.8	5.4%	7.9
CC1(C(=O)CSc2nc3ccccc3s2)CCC(=O)O1 (stereo not drawn)	8.1	11.2	?	1.8	9.9	-0.7%	4.0
Cc1cc(C)c(NC(=O)CN(c2ccccc2)S(=O)(=O)N(C)C)c(C)c1	-5.4	5.4	-1.8%	0.6	5.8	?	6.9
Nc1c(C(=O)N/N=C/c2ccc([N+](=O)[O-])cc2)cnn1-c1ccccc1	4.4	-3.3	19.6%	-1.3	-12.0	3.5%	?
CC(=O)c1c(N)nc2n(c1=O)CCCCC2	-4.8	8.0	21.7%	-1.1	-2.9	-0.7%	-2.8
CCOC(=O)C(NCc1ccccc1OC)(NC(=O)c1ccccc1)C(F)(F)F (stereo not drawn)	3.1	5.8	14.9%	-2.9	3.9	2.6%	-21.8

3 structures from above, sorted by heavy-atom count, rising:
SMILES	D2 potentiator	Six1-Eya2 blk	Sfp inh	D2 ag	CtBP-E1A blk	PINK1 modulator	TRPV1 potentiator
Cc1ccccc1N1C(=O)C2C3CCC(O3)C2C1=O (stereo not drawn)	-6.7	6.6	12.6%	4.7	-22.3	0.9%	6.9
O=C(Nc1ccccc1O)C(c1ccccc1)c1ccccc1	1.7	4.8	17.2%	1.0	2.9	6.4%	14.3
COc1cc([C@@H]2CC=C(C(=O)O)[C@H](c3ccc(Cl)cc3)N2S(=O)(=O)c2ccc(C)cc2)cc(OC)c1OC	-12.9	-0.1	·	2.1	-19.0	-1.7%	8.9

Next section:
SMILES	D2 potentiator	Six1-Eya2 blk	Sfp inh	D2 ag	CtBP-E1A blk	PINK1 modulator	TRPV1 potentiator
Cc1ccc2oc(C(=O)NCC(c3ccco3)N(C)C)c(C)c2c1 (stereo not drawn)	-1.9	-5.7	1.4%	-2.5	·	1.8%	-4.9
Cc1ccc2c(c1)[C@H]1OCC[C@H]1[C@@H](c1ccncc1)N2	0.4	4.6	11.7%	5.8	5.8	0.1%	·
O=C1c2cc([N+](=O)[O-])ccc2-c2cc(Cl)c(NC(=O)C(F)(F)F)cc21	3.6	-9.3	·	2.7	-11.0	12.9%	·
COc1cccc(-c2sc3ccc(OC)cc3c2-c2ccc(O)cc2)c1	-14.0	-6.8	·	-2.4	-8.0	-0.3%	3.1
Cn1nc(C(C)(C)C)c([N+](=O)[O-])c1C(=O)N1CCCCCC1	-4.8	0.1	4.6%	0.7	·	0.1%	-12.5
Cc1ccc(OC(C)C(=O)Nc2ccncc2)cc1 (stereo not drawn)	9.8	-1.7	21.8%	4.0	·	1.6%	-25.7
O=C(C1=C(O)C(=O)N(CCCN2CCOCC2)C1c1ccc(Cl)cc1)c1cc2ccccc2o1 (stereo not drawn)	-4.3	3.1	4.3%	1.2	·	0.8%	5.8
CSc1nc2c(c(=O)n1Cc1ccccc1)SC(C)C2 (stereo not drawn)	6.2	-20.3	8.9%	-0.4	1.4	·	-17.8

Compound activity: PubChem, National Center for Advancing Translational Sciences (NCATS)

An unsorted share of the library (roughly 3.7% active in at least one column).
